Screening data from PubChem.
A1 inh – inhibitors of the anti-apoptotic protein A1, read as caspase activation. MEF A1-2A-BIM cells, Caspase-Glo 3/7 luminescence, 3 h; percent of clofoctol response, vehicle zero. caspase activation, % (no concentration beside the values). 0.066% of 330,000 active. AID 2462;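 active = over half of replicate activation scores above 10%, or exactly half above 10 with the replicate mean above 10; inconclusive = replicate mean below 10 yet half the replicates above 10; inactive = over half of replicates below 10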;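 also: wells of about 30 µL received 50 nL stock; many hits fall short of the cut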
Beta cell apopt – blocks beta cell apoptosis. 0.8% of 300,000 active. INS-1E cytokine-induced death, ATP luminescence, 48 h; percent of positive-control rescue, neutral wells zero. AID 435005. protection from apoptosis, % (test concentration not listed);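 active = all replicates at 75% or more, or half of them and the mean; inconclusive = half reach 75% but not the mean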;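 also: 0% = cytokine-treated negative control wells and 100% = positive control rescue; higher means more ATP so stronger rescue from cytokine killing; wells of about 40 µL received 100 nL stock; the first replicate is given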
T cruzi repl – T. cruzi replication inhibition | AID 1885 | inhibition, % (test concentration not listed) | 1.4% of 300,000 active | T. cruzi beta-gal in NIH3T3, luminescence, 90 h;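 active = mean inhibition across valid replicates above about 55%, limit read from the data; inconclusive = mean below that limit but half or more replicates reach it; inactive = mean below it, under half of replicates reach it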;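 also: signal also drops with host cell toxicity which is not excluded here; 0% = plate median of DMSO wells and 100% = zero luminescence signal; higher percent means less beta-gal luminescence so fewer parasites; stock transfer was 50 nL into about 50 µL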
Ecoli rRNA inh – inhibits bacterial ribosomal RNA function over humanized ribosomes; E. coli WT GFP vs humanized-ribosome RFP mutants, fluorescence, 24 h; hits give low values; DMSO median 0, no signal -100; GFP signal change (wild-type ribosome), % (test concentration not listed); 1.6% of 350,000 active; AID 720706;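 active = significant combined selectivity score with lowered wild-type GFP, culture density cut under 30%, mutant RFP and density less affected; inactive = any of these conditions unmet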; also: one replicate is shown; some compounds called inactive have numbers as strong as hits
Ecoli growth – blocks Escherichia coli growth. OD600, 23 h; hits give low values. OD600 absorbance (concentration not given with the values). 0.21% of 330,000 active. AID 1053175;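 active = OD600 absorbance below the run mean of sample wells minus 3.6 SD, in any replicate, cut at about 0.56 in these data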;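 also: stock transfer was 300 nL into about 60 µL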
FGF22 binding – binders of recombinant human FGF22 by thermal shift; SYPRO orange fluorescence; percent of sucrose octasulfate shift, DMSO zero; 1.5% of 340,000 active; AID 651658; calls only at 9.99 µM; Q9HCT0;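 active = melting point raised past a set limit in the mean and every replicate; inconclusive = no clear call; three in four hits are not shown here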
Target sequence (Q9HCT0 whole entry, looked up): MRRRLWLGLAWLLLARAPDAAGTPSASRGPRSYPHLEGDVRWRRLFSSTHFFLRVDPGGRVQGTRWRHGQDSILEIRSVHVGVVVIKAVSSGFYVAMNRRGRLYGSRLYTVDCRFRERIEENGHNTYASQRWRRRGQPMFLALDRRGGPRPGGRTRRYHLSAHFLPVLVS
UCH37 DUB inh – inhibitors of human deubiquitinating enzyme UCH37; Q9Y5K5; purified proteasome/UCH37, Ub-AMC cleavage fluorescence; inhibition, % (no concentration beside the values); 0.33% of 330,000 active;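 active = mean of two replicates above 20%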;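 also: 0% = compound-free wells with enzyme and 100% = wells lacking proteasome; stock transfer was 100 nL into about 20 µL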
Target sequence (Q9Y5K5 whole entry, looked up): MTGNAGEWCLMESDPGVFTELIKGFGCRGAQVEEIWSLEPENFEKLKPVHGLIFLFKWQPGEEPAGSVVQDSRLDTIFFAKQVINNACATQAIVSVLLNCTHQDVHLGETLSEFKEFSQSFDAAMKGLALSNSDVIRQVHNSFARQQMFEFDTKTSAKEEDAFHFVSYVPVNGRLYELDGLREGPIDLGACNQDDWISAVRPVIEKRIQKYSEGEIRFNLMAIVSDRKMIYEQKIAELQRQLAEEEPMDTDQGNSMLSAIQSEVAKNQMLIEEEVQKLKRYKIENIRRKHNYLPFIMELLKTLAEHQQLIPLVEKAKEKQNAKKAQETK
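System: Proteasome-associated human UCH37 deubiquitinase; Input: 0.15 nM proteasome in added enzyme buffer; Also added: Ub-AMC substrate from 1 µM stock; Incubation: 30 min compound-proteasome preincubation then 25 min substrate reaction, room temperature; Detection: fluorescence, ex 355 nm, em 460 nm; Read-out: % inhibition of Ub-AMC cleavage fluorescence; Benchmarks: no-proteasome and no-compound wells.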
MLL AF4-AF9 inh – MLL-AF4/AF9 protein interaction inhibition; P42568; inhibition, % at 10 µM; AlphaScreen, biotin-AF4 peptide binding to FLAG-AF9; AID 651704; 0.47% of 350,000 active;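 active = every replicate reaching a set inhibition limit, whatever the replicate mean, cut at about 25% in these data; inconclusive = mean inhibition reaches that limit but some replicates miss it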;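 also: 0% = plate neutral control median and 100% = total signal loss; the record names both 10 and 1 µM as test concentration; the first replicate is given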
Target sequence (P42568 whole entry, looked up): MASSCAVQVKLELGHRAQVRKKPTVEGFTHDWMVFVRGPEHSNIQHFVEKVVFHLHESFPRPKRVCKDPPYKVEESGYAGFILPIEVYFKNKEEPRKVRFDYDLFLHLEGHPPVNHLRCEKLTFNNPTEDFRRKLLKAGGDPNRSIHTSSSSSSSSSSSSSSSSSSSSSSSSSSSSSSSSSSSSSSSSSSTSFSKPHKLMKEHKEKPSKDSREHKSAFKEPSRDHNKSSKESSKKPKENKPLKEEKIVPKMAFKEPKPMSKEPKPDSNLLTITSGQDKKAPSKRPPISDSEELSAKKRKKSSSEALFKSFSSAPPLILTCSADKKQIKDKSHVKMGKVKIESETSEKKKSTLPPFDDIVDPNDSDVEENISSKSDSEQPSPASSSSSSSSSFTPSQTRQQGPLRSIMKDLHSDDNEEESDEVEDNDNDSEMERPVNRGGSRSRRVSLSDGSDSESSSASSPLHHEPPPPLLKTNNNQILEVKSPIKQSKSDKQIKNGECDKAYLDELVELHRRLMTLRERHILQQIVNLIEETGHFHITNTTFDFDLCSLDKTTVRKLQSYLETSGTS
Ecoli rRNA inh OD600 – recorded beside Ecoli rRNA inh, whose call it bears; OD600 change, %; measured here: OD600 growth;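 optical density of the mix in the first replicate; 0 = DMSO median and -100 = no signal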
Ecoli rRNA inh RFP – further read-out of Ecoli rRNA inh, marked with its call; RFP signal change, %; measured here: RFP humanized mutant strains;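 first replicate; 0 = DMSO median and -100 = no signal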
Active calls of the source: *; i = inactive; ? = inconclusive; nt = not tested or not shown; & = joins results of further samples. Only part of the results is shown. The share of hits here may be higher or lower than overall.

SMILES	A1 inh	Beta cell apopt	T cruzi repl	Ecoli rRNA inh	Ecoli rRNA inh OD600	Ecoli rRNA inh RFP	Ecoli growth	FGF22 binding	UCH37 DUB inh	MLL AF4-AF9 inh
Cc1cccc(C)c1NC(=S)NCc1ccncc1	-0.2	-1	?	13	6	0.4	0.68	i	1.6	nt
COc1ccc(NC(=O)CN(C)C(=O)c2ccc(OCc3ccccc3)c(OC)c2)cc1	-0.6	1	-5	4	-1	-0.5	0.69	nt	-0.7	1.3
Cc1ccc(N2C(=O)c3ccccc3C2Nc2ccccc2F)nc1 (centres undefined)	-0.2	0	6	-6	-17	-10.0	0.77	i	5.3	-4.6
COc1ccc(C2=NOC(C(=O)NCc3ccc(F)cc3)C2)cc1OC (centres undefined)	0.0	21	-24	-18	-22	-8.2	0.73	i	3.2	6.0
O=[N+]([O-])c1ccc(CSc2nc3ncc(Br)cc3[nH]2)cc1	0.2	4	2	nt	nt	nt	0.67	i	-0.3	-3.4
COCC(=O)NNC(=S)Nc1cccc(C)c1C	-0.4	-3	-2	24	21	2.1	0.7	i	4.7	-3.1
COc1ccccc1N=Cc1c(C)[nH]n(-c2ccc(C)cc2C)c1=O	0.4	-5	3	2	-1	0.1	0.74	i	7.6	7.5
C[C@H](N)c1nnc(SCc2ccc(Cl)cc2Cl)o1	0.5	-3	-1	nt	nt	nt	0.7	nt	5.9	nt
COc1ccc(CCN2CC(C(=O)OCC(=O)N(C)CC(=O)Nc3ccccc3Cl)CC2=O)cc1OC (centres undefined)	nt	nt	nt	6	10	0.3	0.68	i	-3.3	4.8
Nc1nc(SCC(=O)Nc2ccc3c(c2)CCC3)n[nH]1	1.0	-8	-3	4	6	-0.6	0.69	i	-0.8	-3.2
COc1cccc(N2C(=O)CC(NNc3nc4ccccc4s3)C2=O)c1 (centres undefined)	0.9	1	-9	3	-1	3.7	0.68	i	2.0	-2.7
Clc1ccccc1-c1nnc2sc(-c3ccc4c(c3)OCO4)nn12	-0.4	3	-7	nt	nt	nt	0.73	nt	-8.1	nt
Cc1cc(C)c(NC(=O)CSCc2nc3sc(C)c(C)c3c(=O)[nH]2)c(Cl)c1	1.2	0	nt	8	11	6.9	0.66	i	-13	-2.8
CC(=O)Nc1ccc(S(=O)(=O)NCC(=O)OCC(=O)N2CCCCCC2)cc1	0.0	1	nt	nt	nt	nt	0.7	i	1.4	-2.2
CCc1ccc(NC(=O)c2[nH]c(C)c(C(C)=O)c2C)cc1	-2.9	3	4	0	-24	-5.6	0.68	nt	1.1	3.1
Cc1ccc(N2C(=O)CC(Sc3ccccc3C(=O)O)C2=O)cc1C (centres undefined)	0.9	nt	9	-2	3	2.1	0.7	nt	-0.4	-0.4
O=C(NCc1cccnc1)c1c(F)c(F)c(F)c(F)c1F	-0.8	-5	4	nt	nt	nt	0.71	nt	1.4	nt
O=C(O)c1ccccc1C(=O)Nc1n[nH]c(=S)s1	-0.6	-7	-11	14	7	-2.8	0.71	i	3.0	0.7
Cc1cc(C)c(S(=O)(=O)N(C)Cc2cnn(C)c2)c(C)c1	0.3	-5	-4	nt	nt	nt	0.71	nt	2.0	nt
COc1ccccc1-c1cc(C(=O)Nc2cccnc2Cl)no1	-0.7	-18	-7	14	16	0.9	0.71	i	1.7	-0.2
CCOC(=O)n1c(=O)n(Cc2ccc(Cl)c(Cl)c2)c2ccccc21	1.3	2	1	nt	nt	nt	0.71	nt	2.2	nt
Clc1ccccc1NCSC1=NCCS1	nt	nt	nt	4	9	1.0	0.71	nt	1.5	3.9
COc1ccc(NC(=S)NC(=O)/C=C/c2ccco2)cc1	-0.2	-2	18	-9	2	2.3	0.68	i	4.3	2.4
Cc1cc(-c2nnc(CCC(=O)NC(C)(C)C34CC5CC(CC(C5)C3)C4)o2)no1	1.0	1	-6	-29	-29	-0.6	nt	i	nt	-10.0
CCOC(=O)CC1C(=O)NCCN1S(=O)(=O)c1ccc(OC)cc1 (centres undefined)	-2.2	-1	-19	0	-10	-3.3	0.72	i	1.1	-0.1
CC(C)(C)c1ccc(C2C(C#N)=C(N)Oc3n[nH]c(-c4cccnc4)c32)cc1 (centres undefined)	0.8	-3	9	-8	2	-1.6	0.72	i	1.5	1.9
O=c1c2nncn2c2cc(C(F)(F)F)ccc2n1CCNc1ncc(C(F)(F)F)cc1Cl	0.0	6	1	2	8	0.2	0.69	i	0.2	-6.3
O=C(CSc1nnc(Cc2ccccc2)o1)Nc1ccc(Br)cn1	-0.3	-14	-1	nt	nt	nt	0.67	nt	5.8	nt
CC(C)C12CN3CC(C(C)C)(CN(C1)C31C(=O)Nc3ccccc31)C2=O (centres undefined)	-0.4	-1	-16	nt	nt	nt	0.72	nt	4.3	0.1
CS(=O)(=O)N1CCN(C2C3CC4CC(C3)CC2C4)CC1 (centres undefined)	-1.3	2	-5	17	2	-1.3	0.7	i	0.7	-1.1
CC(=O)C1CCC2C3CC(C)=C4CC(O)CCC4(C)C3CCC12C (centres undefined)	nt	nt	nt	-57	-70	-9.9	0.67	i	4.2	-0.8
O=C(O)CCCCNCc1ccccc1	0.7	-4	-13	nt	nt	nt	0.68	nt	-4.5	nt
CCOc1ccc(NS(=O)(=O)c2ccc(C(=O)NCC3(N(C)C)CCCCC3)cc2)cc1	0.4	2	18	2	-2	1.7	0.62	i	1.9	1.4
COc1ccccc1CNCCS(=O)(=O)NN1CCOCC1	nt	nt	nt	14	25	2.8	0.71	i	2.9	-17
CCCn1c(NC(=O)c2ccc(Cl)c(S(=O)(=O)N3CCCC3)c2)nc2ccccc21	-0.6	nt	66*	nt	nt	nt	0.76	nt	-26	nt
COc1ccc(-c2oc3ccccc3c2C(=O)OCc2ccccc2)cc1	-0.7	-3	-1	3	6	-6.7	0.72	i	-72	-2.0
N=C1c2ccccc2CN1NC(=O)c1cccc(S(=O)(=O)N2CCOCC2)c1	0.5	-7	-12	nt	nt	nt	0.72	nt	2.6	nt
COc1ccc(CN2CC(=O)N3[C@H]4c5ccc(OC)cc5OC[C@@H]4[C@H](c4ccccc4)[C@]3(C)C2=O)cc1	-0.8	-10	nt	7	8	11	nt	i	4.6	11
Cc1ccc(/C(O)=C2\C(=O)C(=O)N(C)C2c2ccc([N+](=O)[O-])cc2)cc1 (centres undefined)	-0.2	nt	7	-4	5	-1.9	0.71	i	12	2.7
CCOC(=O)C(C(C)=O)=C1SC2CS(=O)(=O)CC2S1 (centres undefined)	0.0	-6	-4	3	-3	-4.9	0.69	nt	8.2	-8.3
CC(C)(C)c1ccc(OCCCC(=O)N2CCOCC2)cc1	0.2	9	3	-9	-9	-6.3	0.72	i	2.7	3.5
C#Cc1ccc([C@@H]2C=C(C(=O)N3CCOCC3)O[C@H](OCC)[C@H]2CCCO)cc1	-0.1	3	-11	1	0	-6.0	nt	i	27*	-2.7
CCc1c(C(C)S(=O)(=O)c2ccc(C)cc2)[nH]c(=O)n1-c1ccc(OC(F)(F)F)cc1 (centres undefined)	-0.3	nt	-1	nt	nt	nt	0.72	nt	4.2	nt
Cc1ccc(S(=O)(=O)N(C)C)cc1-n1c(SCC(=O)Nc2ccc(F)cc2)nc2ccccc2c1=O	0.2	8	20	nt	nt	nt	0.76	i	2.0	-1.2
COc1ccccc1N1CCN(S(=O)(=O)c2ccccc2F)CC1	0.5	7	24	-22*	-17*	3.2*	0.67	i	3.6	2.0
O=C(Cn1nnc(-c2ccc3c(c2)OCO3)n1)N1CCOCC1	-0.4	-4	-9	nt	nt	nt	0.78	nt	4.9	nt
O=P(c1ccccc1)(c1ccccc1)C(c1ccco1)N1CCOCC1 (centres undefined)	0.6	-6	-13	nt	nt	nt	0.68	nt	0.4	nt
CN(CCNC(=O)CN1CCN(Cc2ccccc2Cl)C1=O)Cc1ccccc1	0.2	2	38	nt	nt	nt	0.79	nt	6.6	nt
CCOC(=O)Nc1cc2c(C)cc(=O)oc2cc1C	0.0	0	-7	nt	nt	nt	0.69	nt	-19	nt
Cc1cccc(-c2noc(CN(C(=O)C(c3ccccc3)c3ccccc3)C(C)C)n2)c1	0.0	6	29	3	-5	-9.1	0.79	i	7.5	-1.0
Fc1cc(F)cc(-c2oncc2-c2nnnn2-c2ccccc2)c1	0.9	-2	-22	nt	nt	nt	0.74	nt	4.8	nt
COc1ccc(N(C(=O)c2cccnc2)S(=O)(=O)c2cccs2)cc1	-0.2	-2	-9	10	-2	0.5	0.69	i	3.6	3.2
N#CCCN(Cc1cccnc1)C(=S)NC(=O)C1CC1	0.6	-10	-14	nt	nt	nt	0.65	nt	2.4	nt
CC(=O)OC(C)C[N+](C)(C)C (centres undefined)	0.8	-2	-1	nt	nt	nt	0.7	i	0.8	2.3&3.3
O=C1OC(CC(=O)N(Cc2nnc(-c3ccc(Cl)cc3)o2)C2CC2)c2ccccc21 (centres undefined)	0.2	-1	nt	-3	-8	2.8	0.68	i	3.2	-2.5
Cc1ccc(C(C)C)c(OCC(=O)N/N=C2\CC(=O)CC(C)(C)C2)c1	0.2	-4	9	nt	nt	nt	nt	i	nt	0.0
COc1ccccc1NS(=O)(=O)c1ccc(C(=O)NCc2ccco2)cc1	-0.2	7	nt	6	-2	-2.0	0.71	i	0.7	1.9
Cc1ccc(N2C(=O)N(CC(=O)Nc3cc(C)cc(C)c3)C(=O)C2C)cc1 (centres undefined)	-0.3	-1	5	0	3	3.0	0.66	i	3.9	1.7
COc1ccc(OCCOc2ccccc2[N+](=O)[O-])cc1	-1.8	2	10	nt	nt	nt	0.72	i	0.6	-7.3
COc1ccc(CNCCC(c2ccc(OC(C)C)cc2)c2ccccc2OC)cc1 (centres undefined)	0.3	?	21	-56	-82	-17	0.62	i	4.4	13

Next section
SMILES	A1 inh	Beta cell apopt	T cruzi repl	Ecoli rRNA inh	Ecoli rRNA inh OD600	Ecoli rRNA inh RFP	Ecoli growth	FGF22 binding	UCH37 DUB inh	MLL AF4-AF9 inh
Cc1[nH]n2c(=O)cc(C(C)C)nc2c1-c1ccccc1	0.3	6	-7	nt	nt	nt	0.63	nt	-3.4	nt
CN(C)CCCN(C(=O)c1ccc2c(c1)CCCC2)c1nc2c(F)cccc2s1	0.7	9	58*	-48	-49	-14	0.63	i	10.0	32*
CCOC(=O)C1CCN(C(=O)c2cc3c(-c4ccc(OC)c(OC)c4)nn(C)c3s2)CC1	-0.7	5	9	nt	nt	nt	0.69	nt	-2.9	nt
O=C1CCCC(=O)N1c1ccc(Oc2ccc(Cl)cc2)cc1	1.9	-8	-2	nt	nt	nt	0.68	nt	2.1	nt
COc1ccccc1C(=O)NC(=O)COC(=O)c1ccc(Br)o1	nt	nt	nt	11	9	-0.1	0.71	i	3.5	-1.6
O=C(O)c1nc(NCc2ccccc2)ncc1Cl	1.6	0	-21	14	11	4.7	0.64	i	-15	1.2
